Source: PubChem BioAssay
KCNQ2 inh – KCNQ2 potassium channel inhibitors, primary screen, cell-based, CHO-K1, FluxOR thallium flux, B-score (AID 2156) | O88943 | 20 min; hits give low values; only compounds with negative scores are shown here; some inactives read as strong as hits | B-score at 10 µM | 1.1% of 310,000 active;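 active = fluorescence ratio B-score at most minus 3 library SDs, with starting brightness B-score within 2 library SDs, cut at about -5.5 in these data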
Target sequence (O88943 whole entry, looked up): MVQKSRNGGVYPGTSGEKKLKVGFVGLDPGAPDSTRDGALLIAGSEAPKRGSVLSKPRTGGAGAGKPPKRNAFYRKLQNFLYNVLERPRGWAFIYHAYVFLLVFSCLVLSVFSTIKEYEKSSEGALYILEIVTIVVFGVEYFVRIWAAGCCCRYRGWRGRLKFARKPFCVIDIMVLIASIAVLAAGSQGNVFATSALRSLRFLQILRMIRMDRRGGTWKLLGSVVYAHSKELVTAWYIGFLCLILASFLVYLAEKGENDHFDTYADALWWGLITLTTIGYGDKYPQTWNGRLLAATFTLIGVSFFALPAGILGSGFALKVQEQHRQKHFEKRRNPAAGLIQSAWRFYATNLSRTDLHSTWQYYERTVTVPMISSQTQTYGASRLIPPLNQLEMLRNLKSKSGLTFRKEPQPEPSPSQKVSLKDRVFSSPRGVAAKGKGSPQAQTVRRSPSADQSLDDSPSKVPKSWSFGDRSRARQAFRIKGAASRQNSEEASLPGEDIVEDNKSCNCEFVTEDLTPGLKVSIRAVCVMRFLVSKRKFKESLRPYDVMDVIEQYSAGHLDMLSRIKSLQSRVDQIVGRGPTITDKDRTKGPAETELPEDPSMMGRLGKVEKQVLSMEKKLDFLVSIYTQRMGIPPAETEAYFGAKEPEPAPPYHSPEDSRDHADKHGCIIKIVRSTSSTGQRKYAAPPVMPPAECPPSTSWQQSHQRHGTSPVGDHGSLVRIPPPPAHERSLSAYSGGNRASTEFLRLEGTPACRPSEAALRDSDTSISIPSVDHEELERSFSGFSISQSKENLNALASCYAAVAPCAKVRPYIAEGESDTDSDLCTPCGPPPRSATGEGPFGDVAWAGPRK
KCNQ2 inh baseline – further read-out of KCNQ2 inh, marked with its call; B-score; measured here: initial fluorescence intensity artifact check;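 brightness before thallium and not channel activity; 0 = typical well and far values either way flag optical interference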
Numbers without * were called inactive; i = inactive. Some of the compounds tested; rates above refer to the full screens.

Every second line gives: KCNQ2 inh baseline | KCNQ2 inh
- C/C(=N\Nc1nc(N2CCCCCC2)nc(N2CCCCCC2)n1)c1ccccc1
 : 0.17* | -9.23*
- CC(NC(=O)CN1CCN(Cc2ccc(Cl)cc2)C1=O)c1ccc2c(c1)OCCO2 (configuration not stated)
 : 0.43 | i
- COc1ccccc1N1CCN(CC(=O)Nc2cc(F)ccc2C)CC1
 : 1.06 | i
- CC1(C)SCC(C(=O)O)NC1=O (configuration not stated)
 : 0.55 | i
- C/C(=N\NC(=O)c1[nH]c2c([N+](=O)[O-])cc(C)cc2c1-c1ccccc1)c1cccnc1
 : -1.26 | i
- O=C(/C=N/O)Nc1cccnc1
 : 2.74 | i
- CN(C)c1ccc(N/C=C/C(=O)c2ccc(F)cc2)cc1
 : 0.37 | i
- CN(C)c1cccc(NC(=O)C2(C)CC2(Cl)Cl)c1 (configuration not stated)
 : -0.54 | i
- O=C(COc1ccc(/C=N/NC(=O)c2ccncc2)cc1)Nc1ccc([N+](=O)[O-])cc1
 : 0.32 | i
- COc1ccc(CC2C(=O)OC(C)(C)OC2=O)cc1
 : 0.09 | i
- O=C(COc1ccccc1[N+](=O)[O-])N1CCCc2ccccc21
 : 1.4 | i
- CCn1c(SCC(=O)NNC(=O)c2ccc(C)cc2)nnc1C(C)C
 : 1.21 | i
- O=C(O)C1CCC(CNS(=O)(=O)c2ccc(Br)cc2)CC1 (configuration not stated)
 : -0.52 | i
- CCc1ccc(NS(=O)(=O)c2cccc3nonc23)cc1
 : 6.67 | i
- CC(C)OP(=O)(c1ccc(N(C)C)cc1)C(O)c1ccc(C(C)C)cc1 (configuration not stated)
 : -0.89 | i
- CCCCn1c(SCC(=O)Nc2nnc(CC)s2)nc2c1c(=O)n(C)c(=O)n2C
 : -0.33 | i
- O=C(Nc1ccc(S(=O)(=O)N2CCOCC2)cc1)c1ccc([N+](=O)[O-])o1
 : -0.02 | i
- Cc1c(NC(=O)C(C)n2cc([N+](=O)[O-])cn2)c(=O)n(-c2ccccc2)n1C (configuration not stated)
 : 1.35 | i
- COc1ccc(C)cc1NC(=O)CN1CCN(S(=O)(=O)c2ccc(Cl)cc2)CC1
 : 1.45 | i
- CCN(C(=O)c1cnc(NC(C)C)cc1C(F)(F)F)c1ccc(Cl)cc1Cl
 : 0.05 | i
- O=C(Cc1nnc(NC(=O)c2ccccc2)s1)N/N=C/c1ccco1
 : 1.3 | i
- CC1=C(C(=O)NC2CCC(C)CC2)C2(CCC(C)CC2)OC1=O (configuration not stated)
 : 2.06 | i
- O=C(NC(=S)Nc1ccccc1[N+](=O)[O-])c1ccco1
 : 0.29 | i
- Cc1ccc(OCC(=O)NNC(=O)CSc2ncc(C#N)c(N)n2)cc1
 : 0.52 | i
- COc1ccc(-n2c(=O)c3c4c(sc3n(CC(=O)NC3CCCC3)c2=O)CCCC4)c(OC)c1
 : 1.94* | -6.71*
- O=C(N/C(=C/C=C/c1ccccc1)C(=O)N1CCCCC1)c1ccc([N+](=O)[O-])cc1
 : -0.95 | i
- COc1ccc(OC)c(NC(=S)N(CCc2c(C)[nH]c3ccc(C)cc23)Cc2cccs2)c1
 : -0.98 | i
- O=C(c1cccc(S(=O)(=O)N2CCN(c3ccccc3)CC2)c1)N1CCCC(C(F)(F)F)C1 (configuration not stated)
 : 0.06 | i
- CCN(c1cccc(C)c1)S(=O)(=O)c1cccc(C(=O)O)c1
 : 2.94 | i
- CC(NC(=O)c1ccccc1F)c1nnc(SCC(=O)N2CCN(c3ccccc3)CC2)n1C (configuration not stated)
 : -0.33 | i
- C=CCNC(=S)NNC(=O)c1ccc(=O)n(Cc2ccc(Cl)cc2Cl)c1
 : 0.18 | i
- CCc1ccc(OCC(=O)NC(NC(=S)Nc2ccccc2C)C(Cl)(Cl)Cl)cc1 (configuration not stated)
 : 0.28 | i
- CCCC(C(=O)NC1CCCC1)N(C(=O)Cn1nnc(-c2ccc(C)o2)n1)C1CCCC1 (configuration not stated)
 : -0.1 | i
- CCCc1cc(=O)[nH]c(SCC(=O)CSc2nc(CCC)cc(=O)[nH]2)n1
 : 1.91 | i
- COc1ccccc1-n1c(CNC(=O)c2cccs2)n[nH]c1=S
 : 2.76 | i
- CCN1CCN(c2ccc(N3CCN(C(=O)c4ccc(Br)o4)CC3)nn2)CC1
 : 0.01 | i
- COc1ccc(/C=N/NC(N)=S)cc1OC(=O)c1cccc2ccccc12
 : 0.98 | i
- CCO[C@H]1OC(C(=O)Nc2ccccc2)=C[C@@H](c2ccc(C(F)(F)F)cc2)[C@@H]1CCCO
 : 0.21 | i
- CN(C(=O)COC(=O)C(C)(C)Oc1ccc(Cl)cc1)c1c(N)n(Cc2ccccc2)c(=O)[nH]c1=O
 : 0.44 | i
- CC(CNC(=O)c1ccc(NC2=NC3CS(=O)(=O)CC3S2)cc1)c1ccccc1 (configuration not stated)
 : -0.22 | i

Reprinted from the part before: three entries, then new ones.
Every second line gives: KCNQ2 inh baseline | KCNQ2 inh
- CCO[C@H]1OC(C(=O)Nc2ccccc2)=C[C@@H](c2ccc(C(F)(F)F)cc2)[C@@H]1CCCO
 : 0.21 | i
- CN(C(=O)COC(=O)C(C)(C)Oc1ccc(Cl)cc1)c1c(N)n(Cc2ccccc2)c(=O)[nH]c1=O
 : 0.44 | i
- CC(CNC(=O)c1ccc(NC2=NC3CS(=O)(=O)CC3S2)cc1)c1ccccc1 (configuration not stated)
 : -0.22 | i
- COc1ccc(Cl)cc1S(=O)(=O)N1CCC(C(=O)NC2CCCC2)CC1
 : -3.24 | i
- Cc1ccc2cc(C(c3nnnn3C3CCCC3)N3CCN(c4ccc(F)cc4)CC3)c(=O)[nH]c2c1 (configuration not stated)
 : 0.96 | i
- Cc1cc(C)cc(NC(=O)COc2coc(CN3CCc4ccccc43)cc2=O)c1
 : 0.71 | i
- COc1ccc(N(CC(=O)NC(C)(C)C)C(=O)CCC(=O)Nc2nccs2)c(OC)c1
 : 2.45 | i
- CC(=O)N1CCN(Cc2nc3scc(-c4ccccc4)c3c(=O)[nH]2)CC1
 : 0.55 | i
- COc1ccc2cc(C(c3nnnn3Cc3ccccc3)N3CCCCCC3)c(=O)[nH]c2c1 (configuration not stated)
 : -1.67 | i
- CN1CCN(/N=C/c2c3ccccc3c(Cl)c3ccccc23)CC1
 : -1.6* | -7.08*
- CCN(C(=O)COC(=O)c1c(-c2ccccc2)noc1C)C1CCS(=O)(=O)C1 (configuration not stated)
 : -0.16 | i
- Cc1ccc(S(=O)(=O)/N=C(/c2ccccc2)N(C)C)c(C)c1
 : 1.37 | i
- COc1ccc(CSc2ncn[nH]2)cc1[N+](=O)[O-]
 : 0.53 | i

Entries of single compounds from above. Order of screens: KCNQ2 inh baseline, KCNQ2 inh
Entry for CN1CCN(/N=C/c2c3ccccc3c(Cl)c3ccccc23)CC1 → -1.6*, -7.08*
Entry for COc1ccc(CSc2ncn[nH]2)cc1[N+](=O)[O-] → 0.53, i
Entry for Cc1cc(C)cc(NC(=O)COc2coc(CN3CCc4ccccc43)cc2=O)c1 → 0.71, i

Later entries
Every second line gives: KCNQ2 inh baseline | KCNQ2 inh
- Cc1cc(NS(=O)(=O)c2ccc(NC(=O)c3cnc4scc(C)n4c3=O)cc2)nc(C)n1
 : 0.65 | i
- COc1ccccc1S(=O)(=O)c1c(C)cc(C)[nH]c1=O
 : -1.4 | i
- CCN(CC)CCN1C(=O)C(=O)/C(=C(/O)c2c(C)[nH]c(C(=O)OC)c2C)C1c1ccccc1 (configuration not stated)
 : -0.68 | i
- COc1ccc(CNC(=O)[C@H](Cc2c[nH]c3ccccc23)NC(=O)[C@@H]2Cc3ccccc3CN2)cc1
 : -1.43 | i
- c1ccc(-n2nnnc2Oc2ccc(-n3ccnc3)cc2)cc1
 : 0.1 | i
- CC(=O)Nc1cccc(NC(=S)Nc2cccc(Cl)c2C)c1
 : 0.7 | i
- Cc1cc(NC(=O)c2sccc2C)n(-c2cccc(Cl)c2)n1
 : 0.14 | i
- CN(C)CCCNC(=O)c1cc(Br)ccc1O
 : 0.06 | i
- COc1ccc(CN(C)Cc2nc3scc(-c4ccccc4)c3c(=O)[nH]2)cc1OC
 : -0.64 | i
- Cc1cccc(NC(=O)c2cc([N+](=O)[O-])ccc2NCC2CCCO2)n1 (configuration not stated)
 : -0.46 | i
- CCOC(=O)c1c(NC(=O)CN2C(=O)NC3(CCCCC3C)C2=O)sc(C)c1CC (configuration not stated)
 : -0.31 | i
- Cc1cc(NC(=O)CN(C)S(=O)(=O)c2ccc(-c3ccc(=O)[nH]n3)s2)ccc1Br
 : 0.4 | i
- Cc1ccc(CNC(=O)[C@H](Cc2ccccc2)NC(=O)C2CCNCC2)cc1
 : 0.87 | i
- COc1cc(OC)c(C(=O)OCC(=O)N2CCOCC2)cc1OC
 : -1.04 | i
- O=C1CC(c2ccc(Cl)cc2)n2nc(N3C(=O)CCC3=O)nc2N1 (configuration not stated)
 : 0.88 | i
- O=C(NCc1ccco1)c1cc(NS(=O)(=O)c2cccc([N+](=O)[O-])c2)ccc1O
 : 2.4 | i
- Nc1nc(N)c(N=O)c(OCC2CCCCC2)n1
 : -1.55 | i
- CCOc1ccc(CCNC(=O)C2CCCN(c3ncnc4c3nc3n4CCCCC3)C2)cc1 (configuration not stated)
 : -0.54 | i
- O=C(Nc1nc2ccc(S(=O)(=O)N3CCCC3)cc2s1)c1ccco1
 : 1.89 | i
- Cn1cccc1CC(=O)N/N=C/C(Cl)=C/c1ccccc1
 : 1.71 | i
- CC1(C)CC(=O)C2=C(C1)OC(N)=C(C#N)C2c1ccc(OC(=O)N2CCOCC2)cc1 (configuration not stated)
 : -0.92 | i
- Cc1cc(C=O)c(C)n1-c1ccc(Oc2ccc([N+](=O)[O-])cn2)cc1
 : -0.29 | i
- O=C(NCc1ccccc1)c1ccc2nccnc2c1
 : 0.48 | i
- Cc1ccc(C)c(N2C(=N)S/C(=C\c3ccc(-c4ccccc4C(=O)O)o3)C2=O)c1
 : -0.83 | i
- COc1ccc(NS(=O)(=O)c2cccc(C(=O)NCC3(N4CCCCC4)CCCCC3)c2)cc1
 : 2.6 | i
- FC(F)(F)c1cnc(C(c2ccccc2)c2ncn[nH]2)c(Cl)c1 (configuration not stated)
 : -0.01 | i
- COc1ccc(N2C3=C(C(=O)CC(C)(C)C3)C(c3ccccc3OC)C3=C2CC(C)(C)CC3=O)cc1
 : -1.86 | i
- COC(=O)[C@H]1CN(C(=O)c2ccccc2)C(=O)N1
 : 0.65 | i
- Cc1cc(C)c(S(=O)(=O)Nc2nccs2)c(C)c1
 : -0.38 | i
- N#C/C(=C\c1ccc(-c2ccc(F)cc2)o1)C(=O)Nc1nc(-c2cccs2)cs1
 : -0.39 | i
- COC(=O)Cn1cnc2c(nnn2-c2ccc(C)cc2)c1=O
 : 0.54 | i
- CC(C)(/C=N/O)N(O)C=C1C=CC(=O)C=C1
 : 0.19 | i
- COc1ccc(OCc2cc(C(=O)N(C)Cc3cc(C4CC4)n[nH]3)no2)c(Cl)c1
 : 2.58 | i
- CC1CCN(CCCCOc2cccc(Br)c2)CC1
 : -1.17 | i
- Cc1ccc(CS(=O)(=O)CCC(=O)NCCC(C)C)cc1
 : -0.01 | i
- Cc1csc(SCC(=O)NC(=O)Cc2ccccc2)n1
 : 0.19 | i
- CCCCN1C(=O)NC(c2ccc(OC)cc2)C(C(=O)OCc2ccccc2)=C1C (configuration not stated)
 : -0.02 | i
- Cc1ccc2c(Cl)cc(Cl)c(OCC(=O)NC(C)(C)C)c2n1
 : 0.84* | -7.05*
- Clc1ccccc1-c1ccc(CN2CCN(c3ccccc3)CC2)o1
 : -0.32 | i
- O=C(CSc1nnc(C2CCCCC2)o1)Nc1ccccc1Cl
 : -0.72 | i
- CC(=O)c1cc2c(cc1NC(=O)CN1CCOCC1)OCO2
 : 1.22 | i
- N#C/C(=C\c1ccc(OCc2ccc(Br)cc2)cc1)C(=O)Nc1cccc(C(=O)O)c1
 : -0.01 | i
- CNc1ccccc1C(C)(C)c1cc(-c2cccc(Br)c2)no1
 : 1.12 | i
- CCOC(=O)c1sc(NC(=O)CN2CCN(c3ccccc3)CC2)nc1C
 : 0.74 | i
- CCCCn1c(N)c(N(CC(C)C)C(=O)CSC(C)C(=O)Nc2cc(C)on2)c(=O)[nH]c1=O (configuration not stated)
 : 0.38 | i
- CCSC1=NCCN1S(=O)(=O)c1ccccc1
 : 0.45 | i
- CCC1CCCCN1CCCNC(=O)CN1C(=O)CSc2ccc(S(=O)(=O)N3CCOCC3)cc21 (configuration not stated)
 : 3.26 | i
- O=C(c1cc(S(=O)(=O)N2CCN(c3ccccc3)CC2)ccc1Cl)N1CCCCCCC1
 : -0.34 | i
- COc1ccc(-c2cn(-c3ccc(OC)cc3)c3[n+]2-c2ccccc2CC3)cc1
 : -0.9 | i
- O=C(c1noc2c1CCCCC2)N1CCOCC1
 : -0.51 | i

(next part)
Every second line gives: KCNQ2 inh baseline | KCNQ2 inh
- CNC(=S)Nc1cc2oc3ccccc3c2cc1OC
 : 0.13 | i
- NCCSC1CC(=O)N(Cc2ccc(F)cc2)C1=O (configuration not stated)
 : -1.87 | i
- CCCNC(=O)[C@@H]1CCCN1C(=O)C1CCN(S(=O)(=O)c2ccc(C)cc2)CC1
 : 0.58 | i
- COc1cc(/C=C2\C(=N)N3N=CSC3=NC2=O)ccc1OS(=O)(=O)c1ccccc1[N+](=O)[O-]
 : -1.02 | i
- CCCCCCCCCC[n+]1cccc2c3ccccc3ccc21
 : 0.31 | i
- O=C(Nc1cccc(-c2nc3ncccc3o2)c1)c1sc2cc(Cl)ccc2c1Cl
 : 0.21 | i
- CCOC(=O)CN1C(=O)N[C@@H](c2cccc(C(F)(F)F)c2)C(C(=O)OC)=C1C
 : -0.71 | i
- CC1CCN(CCC(=O)Nc2ccc3c(c2)OCCO3)CC1
 : 0.58 | i
- COCCN(CC1CCCN(C2Cc3ccccc3C2)C1)C(=O)CSC (configuration not stated)
 : 1.94 | i
- C/C(=N\NC(=O)c1cccc(S(=O)(=O)Nc2ccccc2Cl)c1)c1ccc(-n2ccnc2)cc1
 : -0.24 | i
